# Screening results: PubChem BioAssay, National Center for Advancing Translational Sciences (NCATS)
# PINK1 expr mod = modulators of PINK1 expression | PINK1 immunofluorescence, high-content cytometry, 24 h | Potency, µM (titrated, usually from 76.6 µM), for inactives: at the top dose activation (PINK1 increase), usual class: activators | 410,000 compounds, 0.2% hits | AID 624263; active = well fitted activation curve with a large enough effect; inconclusive = small, poorly fitted or top-dose-only effect; inactive = flat fitted curve, though single readings scatter; cell line not stated here;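 also: potency is read from the fitted curve at half-maximal effect; % of control where 0% means no effect; nearly all actives have a fitted effect of over 65% in size; a mitochondrial uncoupler was the plate control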
#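 A stable cell line was treated with compounds at 5 concentrations for 24 hours, with CCCP as control. PINK1 levels and mitochondrial localization were measured by immunofluorescence with mitochondrial, cell and nuclear markers after fixation, read by laser-scanning cytometry.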
# ClpP mod = qHTS Assay for Activators of ClpP; purified B. subtilis ClpP, FRET peptide cleavage, 20 min; 340,000 compounds, 1.9% hits; Potency, µM (series often up to 57.5 µM), inactives show at the highest dose activity change, negative = active; ATP-dependent Clp protease proteolytic subunit (Bacillus subtilis (strain 168)), P80244; active = well fitted falling curve with a large enough effect; inconclusive = small, poorly fitted or top-dose-only effect; inactive = no such curve, though single readings can be large or run the other way; also: potency is read from the fitted curve at half-maximal effect; the source files actives as falling curves though it sought activators and does not explain the sign; nearly all actives have a fitted effect of over 65% in size; many hits overshoot -100%
# Target sequence (P80244 whole entry, looked up): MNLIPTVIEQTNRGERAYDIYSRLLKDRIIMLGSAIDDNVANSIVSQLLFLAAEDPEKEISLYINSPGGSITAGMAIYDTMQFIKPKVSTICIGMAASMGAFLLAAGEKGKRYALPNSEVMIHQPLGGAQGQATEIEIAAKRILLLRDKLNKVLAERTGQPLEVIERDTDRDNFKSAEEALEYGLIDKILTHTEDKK
#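 FRET quenching reversal measured ClpP activation: 10 microg/mL B. subtilis ClpP at pH 8 with the FRET-FV decapeptide, read at 430 nm after 320 nm excitation. The 20-min minus 0-min signal was scaled between DMSO/no-enzyme wells and ADEP (5.8 microM final).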
# D2 agonist = activates the human D2 dopamine receptor | DiscoveRx PathHunter D2 beta-arrestin, luminescence, 90 min; 100% = 57 uM dopamine signal | activation, % (concentration not given with the values) | 360,000 compounds, 0.084% hits | AID 624465; in the data active = activation above about 40%; inconclusive = about 15% to 40%; inactive = below about 15%; also: the text of the record calls up to 30% inactive
# Target sequence (P14416 whole entry, looked up): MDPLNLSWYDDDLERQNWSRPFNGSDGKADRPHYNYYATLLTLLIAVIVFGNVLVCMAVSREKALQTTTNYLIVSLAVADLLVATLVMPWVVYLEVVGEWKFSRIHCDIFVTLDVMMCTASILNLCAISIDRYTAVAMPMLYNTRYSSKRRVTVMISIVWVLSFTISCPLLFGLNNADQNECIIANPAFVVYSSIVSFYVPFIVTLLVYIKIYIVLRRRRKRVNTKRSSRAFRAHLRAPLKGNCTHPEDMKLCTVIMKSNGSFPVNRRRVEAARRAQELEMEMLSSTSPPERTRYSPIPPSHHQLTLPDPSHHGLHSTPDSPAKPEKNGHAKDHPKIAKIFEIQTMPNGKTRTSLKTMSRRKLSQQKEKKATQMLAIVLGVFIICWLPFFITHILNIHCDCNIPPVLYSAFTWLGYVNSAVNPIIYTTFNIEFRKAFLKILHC
#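 DiscoveRx PathHunter D2 beta-arrestin cells (2,100/well) attached overnight, then compound-stimulated 90 min at 37 C in HBSS/10 mM HEPES/0.1% Tween-20 buffer; beta-galactosidase complementation read by luminescence after 1 h at ambient temperature. Dopamine 57 uM final (EC100) as control.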
# gsp antag = antagonists of gsp mutant (McCune-Albright syndrome) | AID 624288 | gsp-mutant cells, cAMP HTRF, 30 min; control for the full effect not named in the record | Potency, µM (highest dose often 76.9 µM), inactives show at the top dose activity change, negative = inhibition, hits mostly inhibitors | 340,000 compounds, 0.4% hits; active = falling curve of any shape with a large fitted effect; inconclusive = falling curve, mostly with a smaller effect; inactive = flat or rising curve; cell line not stated here;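 also: intracellular cAMP measured with PDE inhibitor Ro 20-1724 present during compound exposure; potency is read from the fitted curve at half-maximal effect; % is scaled to controls: 0 for no effect and ±100 for the full control effect; nearly all actives have a fitted effect of over 65% in size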
#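 Cells, 2000/well, grown 16–24 h in DMEM 10% FBS with 0.5 mg/ml G418, then compounds plus […] (300 uM addition stock), 30 min at 37C. cAMP read by HTRF (cAMP-d2 and anti-cAMP antibody-K in lysis buffer) after 30 min RT.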
# Sfp PPTase inh = blocks B. subtilis Sfp PPTase activity. Q9F4F7. Biochemical Sfp PPTase activity, qHTS. Potency, µM, for inactives: max response, negative = inhibition, actives largely listed as inhibitors. 310,000 compounds, 3.5% hits. AID 1490; active = well fitted inhibition curve with a large enough effect; inconclusive = small, poorly fitted or top-dose-only effect, or another doubt; inactive = no such curve, though single readings can be large or run the other way;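 also: the enzyme is Sfp with the accession as filed and its product quenches rhodamine fluorescence; potency is read from the fitted curve at half-maximal effect; 0% = enzyme reaction without inhibitor and -100% = no enzyme wells; top concentration of the series not given in the record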
#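 After 15 min at room temperature with compound, 15 nM Sfp received 5 uM rhodamine-CoA plus 12.5 uM BHQ-2-ybbR (50 mM Hepes pH 7.6, 10 mM MgCl2). Rate came from the fluorescence difference over 30 min, ex 525/em 598 nm.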
# Menin MLL FP FL = menin-MLL binding inhibition, fluorescein peptide | FP activity change, % at 61.4 µM | Fluorescence polarization, fluorescein-MLL peptide displacement from menin | 290,000 tested, under 10 active; inconclusive = falling polarisation curve, or a change in total fluorescence; inactive = total fluorescence flat and polarisation flat or rising; no compound was filed as active; the % refers to the polarisation; negative = inhibition;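 also: % of control where 0% means no effect; inhibitors lower the polarisation; unlabelled MLL peptide was the positive control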
# gsp agonist = activates gsp, the McCune-Albright syndrome mutation. gsp mutant cells, cAMP HTRF, 30 min; control for the full effect not named in the record. Potency, µM (series often up to 76.9 µM), for inactives: at the highest dose activation (cAMP increase), hits mostly activators. 340,000 compounds, 0.13% hits. AID 624287; active = well fitted activation curve with a large enough effect; inconclusive = small, poorly fitted or top-dose-only effect, or another doubt; inactive = no such curve, though single readings can be large or run the other way; cell line not stated here;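 also: phosphodiesterase inhibitor Ro 20-1724 added with compounds to block cAMP breakdown; potency is read from the fitted curve at half-maximal effect; nearly all actives have a fitted effect of over 60% in size; about a fifth of the inactives were tested at one dose only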
#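 Cells in DMEM/10% FBS with G418 were pretreated with compounds in DMSO plus […] (300 uM stock) for 30 min at 37C. cAMP was measured by HTRF (cAMP-d2 plus anti-cAMP antibody-K) after 30 min at room temperature.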
# Active calls of the source: *; ? = inconclusive; nt = no result given; & = joins results of further samples; [ ] = another dose, or the depositor's remark.
SMILES,PINK1 expr mod,ClpP mod,D2 agonist,gsp antag,Sfp PPTase inh,Menin MLL FP FL,gsp agonist
Cc1ccccc1OCC(=O)OCC(=O)c1ccc[nH]1,0.5%,1.9%,-2.8,8%,nt,nt,18%
COc1ccc(-c2ccc(CCC(=O)O)n2-c2ccccc2O)cc1,7.5%&0.8%,-20%&-19%,-2.8,-3%,79µM*,38[activator],14%
Cc1ccc(C(=O)NCCCN2CCOCC2)cc1,-1.5%,-1.9%,-0.5,12%,nt,nt,-17%
Cc1cc(Nc2ccccc2C(=O)O)n(-c2cccc(Cl)c2)n1,-0.4%,-3.2%,-1.9,3%,10%,-0.8,-19%
CCN(CC)C(=O)c1cnn(-c2ccccc2)c1NC(=O)c1cccs1,-0.9%,0.2%,-2.2,8%,9%,0.6,14%
CC1(CC(=O)N/N=C/c2cc(Br)c(O)cc2O)OCCO1,2.3%[38.3 µM],0.0%,-0.3,7%,19%,3.6,-1%
Cc1cc(C)c(NC(=O)CCN2CCN(Cc3ccccc3)CC2)c(C)c1,-0.4%,nt,3.5,0%,nt,nt,-11%[15.4 µM]
CCOc1ccc(NC(=O)Nc2cccnc2)cc1,5.8%,nt,-2.7,?,12%,1.6,6%[15.4 µM]
O=C(c1ccc2oc(CCc3ccccc3)nc2c1)N1CC[C@H](O)C1,1.8%,-1.4%,-1.7,-3%,5%,nt,10%
C=CCNC(=O)C1(c2ccccc2)CC1(Cl)Cl (stereo not drawn),-0.5%,-3.0%,-0.6,15%,1%,12,-4%[15.4 µM]
CC(=O)c1ccc(NCC(=O)N2CCN(c3ccccc3)CC2)cc1,6.6%,-2.1%,-1.4,3%,2%,7.4,-31%[inhibitor]
O=C(CN1C(=O)CCS(=O)(=O)c2ccccc21)Nc1cccc(F)c1,0.9%,-2.0%,-0.6,-9%,-3%,2.1,18%
Cc1nn(-c2ccccc2)c(C)c1CN(C)C(=O)c1ccc(S(=O)(=O)NCc2ccco2)cc1,-0.1%,4.7%,-2.5,-15%,nt,nt,-4%
O=C(CCC(=O)Nc1ccccc1)N/N=C/C=C/c1ccccc1,0.7%,-0.5%,0.7,-1%,-6%,2.2,-2%
Cc1c(NC(=O)c2ccc(=O)oc2)c(=O)n(-c2ccccc2)n1C,4.0%,-10%,-0.9,-3%,-7%,?,-15%
CSc1n[nH]c(NC(=O)c2c(-c3c(Cl)cccc3Cl)noc2C)n1,-0.6%,-2.1%,-0.2,-5%,15%,1.9,23%[15.4 µM]
N#Cc1cc2c(nc1SCc1ccccc1)CCCCC2,5.9%,-6.0%,-3.9,-7%,-14%,-2.3,15%
O=Cc1ccc(OCCOc2ccc([N+](=O)[O-])cc2)cc1,-3.3%,-3.0%,-2.2,3%,9%,2.6,?
Cn1nc(C(=O)OCC(=O)c2ccc[nH]2)c2ccccc2c1=O,1.3%,nt,-2.5,-6%,16%,1.9,6%[15.4 µM]
COC(=O)c1cccc(CC2(C)C(=O)Nc3cc(-c4ccccc4Cl)ccc32)c1 (stereo not drawn),8.0%,-8.6%,13,nt,nt,nt,nt

# Ordered by the number under gsp antag (smallest number first): 3 of the compounds above.
canonical_smiles	gsp antag
CSc1n[nH]c(NC(=O)c2c(-c3c(Cl)cccc3Cl)noc2C)n1	-5%
O=C(CCC(=O)Nc1ccccc1)N/N=C/C=C/c1ccccc1	-1%
CC(=O)c1ccc(NCC(=O)N2CCN(c3ccccc3)CC2)cc1	3%

# Other records follow.
SMILES,PINK1 expr mod,ClpP mod,D2 agonist,gsp antag,Sfp PPTase inh,Menin MLL FP FL,gsp agonist
COCCNC(=O)Cc1cn(C)c2ccccc12,3.8%,-11%,0.5,2%,17%,-0.3,-51%[inhibitor]
Cc1cccc(Oc2nccc(C(F)(F)F)c2C(=O)Nc2ccc(F)cc2F)c1,6.5%,nt,3.7,-5%,7%,-0.4,?
CCOC(=O)N1CCN(S(=O)(=O)c2ccc(NC(C)=O)cc2)CC1,0.6%,1.4%,-7.5,1%,1%,2.4,-30%
C#CCN1CCc2onc(-c3ccccc3OC)c2C1=O,0.8%,-7.5%,-3.8,nt,nt,nt,nt
O=C(Cc1ccccc1F)Nc1nc(-c2ccc(F)c(F)c2)cs1,4.9%,nt,7.0,?,1%,3.4,23%
O=C(O)CC(SCC(=O)Nc1ccc(S(=O)(=O)N2CCCC2)cc1)C(=O)O (stereo not drawn),-2.0%,nt,-1.3,12%,1%,-2.1,5%
Cc1ccc(-n2c(C)nnc2SCC(=O)NC2CCCC2)cc1,-0.3%,-1.0%,-0.9,10%,22%,-0.6,-19%
O=C(CN(Cc1ccco1)C(=O)CNS(=O)(=O)c1ccc(F)cc1)NCCc1ccccc1,-1.9%,-3.9%,-2.6,-1%,-1%,1.5,4%
N#C/C(=C\c1ccc(OC(=O)c2ccc(Cl)s2)cc1)c1nc2ccccc2[nH]1,6.7%,-2.6%,-1.8,6%,-12%,?,-23%
Cc1ccccc1NC(=O)CCNS(=O)(=O)c1ccc2[nH]c(=O)oc2c1,0.7%,-0.5%,2.2,7%,9%,nt,-35%[inhibitor]
COc1ccc(CN2CCNC(=O)C2CC(=O)NC2CCCCCC2)c(F)c1 (stereo not drawn),1.6%,-5.4%,-0.7,4%,3%,0.4,9%
O=C(CCc1nnc(Cc2c[nH]c3ccccc23)o1)NCCC1CCCCO1 (stereo not drawn),0.2%,-5.2%,-4.3,nt,nt,nt,-3%
Cc1ccc2c(c1)C1CN(C)CCC1N2C(=S)Nc1ccc(OC(F)F)cc1 (stereo not drawn),1.3%,nt,-1.5,-5%,-15%,-1.0,15%[15.4 µM]
Cc1nc2ccc(C(=O)OCC(=O)N(C)c3ccccc3)cc2nc1C,0.7%,-2.9%,-3.7,3%,nt,nt,9%
CN(C)S(=O)(=O)c1cccc(NC(=O)C2CCCN(C(=O)c3ccc(Cl)cc3)C2)c1 (stereo not drawn),-0.7%,-0.5%,1.8,nt,nt,nt,-30%
COc1ccc(S(=O)(=O)N2CCCCC2c2cc(C(=O)Nc3ccc(OC)cc3C)no2)cc1 (stereo not drawn),0.3%,1.1%,-3.6,nt,nt,nt,nt
COc1ccc(-c2nc(-c3ccccc3)ncc2S(C)(=O)=O)cc1,4.1%,nt,3.8,nt,8%,-1.0,2%[15.4 µM]
Cc1nc(NC(=O)CN2CCOCC2)sc1C(=O)N(C)C,-1.3%,-0.5%,5.0,-3%,5%,-2.9,13%[15.4 µM]
COc1ccc(C(=O)N/C(=C\c2ccc3c(c2)OCO3)C(=O)Nc2cccc(C(=O)O)c2)cc1,-1.2%,-5.6%,-5.2,-1%,12%,2.2,?
CC1=CC2=NC(=O)/C(=C\c3cccn3CCOc3cccc(C)c3)C(=N)N2O1,1.3%,-2.5%,-5.2,-25%,?,0.9,-8%[15.4 µM]
COC(=O)c1nc[nH]c1C(=O)OC,-0.8%,nt,-3.2,10%,14%,-1.0,-6%
Cc1nc2ccc3[nH]snc3c2n1,1.7%,-1.2%,-3.1,11%,5%,4.1,-8%
Cc1[nH]c2ccccc2c1CCNC(=O)CCC(=O)c1ccccc1,-1.0%,1.9%,-2.5,-2%,19%,0.1,-2%[15.4 µM]
COc1ccc(CN(C)CC2CCCN(CCc3ccc(F)cc3)C2)cc1OC (stereo not drawn),2.4%,0.5%,-5.7,-1%,13%,1.7,-15%
O=C(CCn1nc(-c2ccccc2)ccc1=O)NCCCN1CCCCCC1,7.3%,-23%,-0.8,11%,-14%,4.8,-25%
O=C(OCC1CCCN2CCCCC12)c1ccc2c(c1)OCO2 (stereo not drawn),nt,-9.3%,-0.5,3%,17%,-3.1,-49%[inhibitor]
Cc1cccc(C(=O)NC(C(=O)Nc2nc(-c3ccccn3)cs2)C(C)C)c1 (stereo not drawn),3.4%,-1.9%,-4.4,-18%,-14%,1.5,-41%[inhibitor]
CC(=O)c1ccc(NC(=S)N2CCCCCC2)cc1,-0.7%,nt,3.3,nt,7%,0.2,0%[15.4 µM]
O=C(OCc1ccccc1Cl)C1CC(=O)N(Cc2ccco2)C1 (stereo not drawn),2.4%,-1.1%,-8.4,4%,nt,nt,2%
O=C(COc1ccc(-n2cnnn2)cc1)NCCc1ccc(F)cc1,0.0%,-5.3%,-1.3,-12%,18%,3.7,-18%
CC(C)(C)N1CC2([N+](=O)[O-])CN(C(C)(C)C)CC([N+](=O)[O-])(C1)C2,0.0%,-3.5%,-3.1,6%,13%,1.4,-32%[inhibitor]
O=C(CCCCC(=O)Nc1ccccc1Cl)Nc1ccccc1Cl,2.7%,-0.3%,5.2,12%,-1%,0.7,-8%
Cc1csc(=O)n1CC(=O)OCC(=O)NNC(=O)c1ccccc1,2.0%,0.5%,-6.3,5%,-1%,2.3,?
CC(=NNC(=S)Nc1ccccc1Cl)c1ccccn1,-6.4%,-2.3%,-1.6,-9%,nt,nt,0%
CC(C)c1ccccc1OCC(=O)N(C)CC(=O)Nc1ccc(F)cc1,0.8%,-6.3%,-2.9,-19%,nt,nt,6%
Cc1cccc(Cc2nnc(CCC(=O)N(CC3CC3)CC3CCCO3)o2)c1 (stereo not drawn),-0.1%,nt,1.9,4%,10%,-2.9,-14%
CC(=O)Nc1cc(-c2ccc(F)cc2)cn2c(-c3ccc(S(C)(=O)=O)cc3)cnc12,3.9%,4.7%,-0.9,nt,nt,nt,nt
C#CCN(C[C@@H]1[C@@H](OC(=O)NCc2ccc(OC)c(OC)c2)[C@@H](OC(=O)NCc2ccc(OC)c(OC)c2)Cn2c(=O)ccc(=O)n21)S(=O)(=O)c1ccc(C)cc1,3.4%,2.0%,-6.5,nt,nt,nt,-46%[inhibitor]
